CtBP-E1A inh – CtBP/E1A binding inhibition. actives 0.49% (n = 340,000). activity change, % (no concentration beside the values). AlphaScreen GST-E1A/His-CtBP binding, 1536-well; active compounds read low; control for the full effect not named in the record; in the data active means activity change below about -65%; inconclusive means about -30% to -65%; inactive means above about -30%; note: % is set by controls: 0 for no effect and ±100 for the full control effect
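In 5 uL wells, 23 nL compound meets equimolar GST-E1A and His-CtBP (5X stock 125 nM each) for 2 h, 37 °C. Beads (5X, 50 ug/mL) then 1 h, 37 °C, dark.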
D2 agonist – activates the human D2 dopamine receptor. DiscoveRx PathHunter D2 beta-arrestin, luminescence, 90 min; 100% = 57 uM dopamine signal. activation, % (test concentration not listed). P14416. actives 0.084% (n = 360,000); in the data active = activation above about 40%; inconclusive = about 15% to 40%; inactive = below about 15%; note: compound concentration not given in the record; the text of the record calls up to 30% inactive
Target sequence (P14416 whole entry, looked up): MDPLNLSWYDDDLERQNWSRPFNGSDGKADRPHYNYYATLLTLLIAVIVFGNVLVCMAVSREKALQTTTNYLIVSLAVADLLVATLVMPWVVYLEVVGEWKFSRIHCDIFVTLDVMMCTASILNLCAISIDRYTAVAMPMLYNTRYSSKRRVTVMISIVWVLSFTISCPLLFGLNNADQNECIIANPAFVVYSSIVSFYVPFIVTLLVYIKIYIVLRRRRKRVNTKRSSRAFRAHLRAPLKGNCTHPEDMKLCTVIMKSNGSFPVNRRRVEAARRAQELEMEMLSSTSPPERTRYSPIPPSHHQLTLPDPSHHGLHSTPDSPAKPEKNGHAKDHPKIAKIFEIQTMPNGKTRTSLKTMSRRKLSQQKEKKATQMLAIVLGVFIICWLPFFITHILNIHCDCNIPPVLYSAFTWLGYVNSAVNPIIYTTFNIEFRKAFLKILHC
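Agonist mode: compounds alone added to overnight-plated D2 PathHunter cells for 90 min at 37 C, with 57 uM final dopamine (EC100) defining full response. Beta-arrestin recruitment detected by chemiluminescent reagent, read after 1 h at ambient temperature.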
PINK1 modulator – PINK1 expression modulation; actives 0.2% (n = 410,000); Potency, µM (highest dose often 76.6 µM), without a hit: top-dose activation (PINK1 increase), hits mostly activators; AID 624263; PINK1 immunofluorescence, high-content cytometry, 24 h; active = well fitted activation curve with a large enough effect; inconclusive = small, poorly fitted or top-dose-only effect; inactive = flat fitted curve, though single readings scatter; cell line not stated here;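 note: potency is the fitted concentration of half-maximal effect; % of control where 0% means no effect; nearly all actives have a fitted effect of over 65% in size; a mitochondrial uncoupler was the plate control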
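Decision-based qHTS: stable cells, 24 h exposure to five compound concentrations, CCCP as control. Fixed cells stained for PINK1 plus nuclear, mitochondrial and cell markers, cytometer read.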
TRPML1 agonist – human mucolipin-1 channel agonism; actives 0.12% (n = 410,000); TRPML1-expressing cells, Ca2+ dye fluorescence, FDSS; host cell line not named in the record; reference of the full effect not given here; AID 624414; activation, % (no concentration beside the values); Q9GZU1; in the data active = activation above about 50%; inconclusive = about 30% to 50%; inactive = below about 30%; note: 0% is about no effect; the text of the record puts the active cut at 80%
Target sequence (Q9GZU1 whole entry, looked up): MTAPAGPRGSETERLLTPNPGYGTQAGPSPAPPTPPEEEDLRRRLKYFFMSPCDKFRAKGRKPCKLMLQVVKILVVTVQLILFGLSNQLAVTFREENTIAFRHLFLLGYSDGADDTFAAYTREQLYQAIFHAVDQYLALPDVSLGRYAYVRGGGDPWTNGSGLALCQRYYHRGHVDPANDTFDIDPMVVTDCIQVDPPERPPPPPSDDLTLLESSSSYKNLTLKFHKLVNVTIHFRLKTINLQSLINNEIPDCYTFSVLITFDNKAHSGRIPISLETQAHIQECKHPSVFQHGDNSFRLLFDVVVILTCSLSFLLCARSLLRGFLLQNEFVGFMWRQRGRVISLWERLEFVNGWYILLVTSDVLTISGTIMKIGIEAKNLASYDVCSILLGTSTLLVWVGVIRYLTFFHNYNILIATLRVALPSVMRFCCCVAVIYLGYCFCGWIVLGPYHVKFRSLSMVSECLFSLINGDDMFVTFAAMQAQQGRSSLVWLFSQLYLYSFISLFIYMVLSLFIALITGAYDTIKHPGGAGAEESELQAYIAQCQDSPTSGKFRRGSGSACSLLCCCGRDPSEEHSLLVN
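Tet-induced TRPML1-DL cells, 1,500 per well, cultured overnight, were loaded with a no-wash Ca2+ dye for 45–90 min. Calcium fluorescence was recorded on the FDSS for 110 s after compound addition, before the EC80 agonist (4 uM 54-4) was added.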
TRPML1 inh – blocks the human TRPML1 channel; AID 624415; actives 0.02% (n = 390,000); Q9GZU1; activity change, negative = inhibition, % (no concentration beside the values); TRPML1-inducible cells, Ca2+ dye fluorescence, FDSS; active compounds read low; inhibition of EC80 agonist-evoked calcium signal; in the data active means activity change below about -50%; inconclusive means about -30% to -50%; inactive means above about -30%;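 note: stimulus is agonist 54-4 at its EC80 concentration; % is set by controls: 0 for no effect and ±100 for the full control effect; compound concentration not given in the record; the text of the record puts the active cut at -80%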
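Tet-induced TRPML1-DL cells loaded with Ca8 no-wash calcium dye were read kinetically on FDSS. Compound addition was followed by EC80 agonist 54-4 (4 uM final); inhibition was read over 110 s.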
Six1-Eya2 blk – blocks human Six1 binding to Eya2. actives 0.56% (n = 360,000). Q15475+O00167. AlphaScreen GST-Six1/His-Eya2 binding, biochemical; active compounds read low; control for the full effect not named in the record. activity change, % (no concentration beside the values); in the data active = activity change below about -65%; inconclusive = about -30% to -65%; inactive = above about -30%; note: % is set by controls: 0 for no effect and ±100 for the full control effect
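AlphaScreen with GST-Six1 and His-Eya2 (5X mix: 250 nM and 500 nM), glutathione donor and nickel acceptor beads; buffer 50 mM Tris pH 8.0, 300 mM NaCl, 1 mM TCEP; 1 h at 37 C in the dark.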
* hit, by the source's call; ? = inconclusive; · = no result given; & = joins results of further samples; [ ] = remark or other dose.

SMILES	CtBP-E1A inh	D2 agonist	PINK1 modulator	TRPML1 agonist	TRPML1 inh	Six1-Eya2 blk
CCOC(=O)c1ccc(N=C2NC(=O)CS2)cc1	5	0.3	-0.9%	-0.8	4	6
CC(C)[C@@H](NC(=O)C1CCC(CNC(=O)[C@H](Cc2ccccc2)NC(=O)OC(C)(C)C)CC1)C(=O)O (some centres not stated)	-4	-0.8	-1.5%	0.2	18	8
Cc1ccc(NC(=O)COC(=O)COc2ccc(Cl)cc2C)c([N+](=O)[O-])c1	7	0.4	0.8%	-0.2	-1	-3
CC/C(=N\NS(=O)(=O)c1ccc(C)cc1)c1ccco1	1	-2.7	-2.4%	-0.6	-14	8
COCCNc1nc2c(S(=O)(=O)c3ccccc3)nnn2c2ccc(Cl)cc12	·	·	-2.9%	1.1	-18	·
COc1ccc(CN(C(C)=O)c2cc(C)c([N+](=O)[O-])cc2OC)cc1OC	3	-2.0	4.7%	-1.0	1	1
COc1cccc(N2CC(NC(=O)C3CCCC3)CC2=O)c1 (configuration not stated)	·	·	0.3%	-0.7	-14	·
CCN1CCN(CC#CCOc2ccccc2OC)CC1	-4	1.5	-0.9%	0.5	33	1
N#C/C(=C\C1CC=CCC1)c1nc2ccccc2[nH]1 (configuration not stated)	-7	-3.0	4.4%[38.3 µM]	0.7	-14	0
CC(Oc1ccccc1)C(=O)N1CCN(C(=O)C(C)Oc2ccccc2)CC1 (configuration not stated)	4	-4.0	-0.1%	-0.1	-20	-15
COc1ccc(S(=O)(=O)N2CCC(N3CCCC3)CC2)cc1	3	-2.1	0.7%	-0.8	0	-3
CN(C)c1ccc(CN(CC2CCCO2)C(=O)COc2ccccc2Cl)cc1 (configuration not stated)	·	·	-0.3%	0.5	-13	·
FC(F)(F)c1cc(Cl)c2nc(-c3ccc(Cl)cc3)c(Cc3ccccc3)n2c1	9	-2.2	2.6%	-0.4	·	1
Cc1ccc(C)c(NC(=O)CSc2nnc3n2CCCCC3)c1	·	-6.1	-0.1%	1.5	-4	20
C=C1CCC[C@]2(C)C[C@H]3OC(=O)C(CNCC(C)C)[C@H]3CC12 (some centres not stated)	5	-4.3	1.8%	·	·	3
O=C(NCc1csc2ccc(Cl)cc12)Nc1ccccc1	·	-4.8	8.5%	-1.2	8	7
Cc1nc(N2CCOCC2)c2c(C)c(C(=O)Nc3ccc(C(F)(F)F)cc3)sc2n1	0	2.2	-0.8%	0.1	-13	11
O=C(CSc1nnc(-c2ccncc2)n1Cc1ccco1)OC1CCCCC1	6	-2.1	1.5%[38.3 µM]	1.3	-12	0
O=C(O)CNS(=O)(=O)c1ccc(F)cc1	7	-1.2	3.8%[38.3 µM]	-0.4	6	4
CC1(C(=O)Nc2ccc(F)c(Cl)c2)Cc2c(-c3cccc(C(F)(F)F)c3)ccnc2O1 (configuration not stated)	1	3.1	7.2%	-0.2	40	2
CCCCn1nnnc1C(c1ccccc1)N1CCN(C(C)=O)CC1 (configuration not stated)	6	·	-0.7%	-0.3	·	3
CN(C)S(=O)(=O)c1cccc(NC(=O)CCSc2ccc(Cl)cc2)c1	6	-2.4	0.2%	3.2	6	2
COCCN(C(=O)c1ccccc1F)c1nnc(-c2ccc(OC)cc2)s1	-2	-4.1	3.6%	0.5	24	6
Cc1cccc(NC(=S)NC(NC(=O)c2ccco2)C(Cl)(Cl)Cl)c1 (configuration not stated)	-14	0.2	1.5%	2.0	41	-12

Profiles, looked up by structure. Order of values: CtBP-E1A inh, D2 agonist, PINK1 modulator, TRPML1 agonist, TRPML1 inh, Six1-Eya2 blk
Shown for Cc1nc(N2CCOCC2)c2c(C)c(C(=O)Nc3ccc(C(F)(F)F)cc3)sc2n1 : 0, 2.2, -0.8%, 0.1, -13, 11
Shown for FC(F)(F)c1cc(Cl)c2nc(-c3ccc(Cl)cc3)c(Cc3ccccc3)n2c1 : 9, -2.2, 2.6%, -0.4, ·, 1
Shown for COc1ccc(S(=O)(=O)N2CCC(N3CCCC3)CC2)cc1 : 3, -2.1, 0.7%, -0.8, 0, -3
Shown for COc1cccc(N2CC(NC(=O)C3CCCC3)CC2=O)c1 (configuration not stated) : ·, ·, 0.3%, -0.7, -14, ·

New compounds follow.
SMILES	CtBP-E1A inh	D2 agonist	PINK1 modulator	TRPML1 agonist	TRPML1 inh	Six1-Eya2 blk
Cc1ccc(C2CC(C(F)(F)F)n3ncc(C(=O)NCc4ccco4)c3N2)cc1 (configuration not stated)	-7	-2.7	0.2%[38.3 µM]	0.2	-6	-11
COCCCNc1nc2c(-c3ccc(C)cc3)nnn2c2ccccc12	·	-1.6	0.4%	-0.1	-6	7
COc1ccc(C2C(C(=O)Nc3ccccn3)=C(C)Nc3ncnn32)c(OC)c1 (configuration not stated)	6	-5.5	0.2%	-0.4	3	-5
CCc1ccccc1-n1nnc(-c2ccccc2)n1	13	0.3	0.4%	1.8	-22	9
CCCCN1CC(O)=C(c2nc3ccccc3[nH]2)C1=N	-5	-2.3	6.9%	0.2	3	-7
Cc1cccc(C(=O)NCCC(=O)Nc2ccc(F)c([N+](=O)[O-])c2)c1	-4	-1.1	-0.9%	0.2	0	-5
CN(C)CCCNC(=O)c1cc2sc3ccccc3c2s1	0	-3.6	6.5%	-0.2	-18	5
NC(=O)c1c(NC(=O)CSc2nc3c(c(C(F)(F)F)n2)CCc2ccccc2-3)sc2c1CCCC2	-4	-2.1	11%[38.3 µM]	0.0	8	-2
CCOC(=O)c1noc2nc(C)n(CC(=O)Nc3ccccc3F)c(=O)c12	·	·	-1.6%	0.1	32	·
N#Cc1ccc(CN2CCN(C(=O)c3ccccc3)CC2)c(Cl)c1	2	-4.2	?	-0.5	16	0
Cn1nnnc1NN=Cc1ccccc1	-14	-1.6	0.1%	-0.1	4	-11
COc1cccc(-n2ccnc2SCC(=O)Nc2c(C)cc(C)cc2C)c1	·	·	9.8%	1.6	57	·
COc1ccc(N2CC(O)(c3ccc(F)cc3)[N+]3=C2CCCC3)cc1 (configuration not stated)	-8	-4.5	-1.0%	-0.5	18	-9
CCCN1CCN(CCCNC(=O)Cn2nc(CC)n3c(cc4occc43)c2=O)CC1	·	·	1.5%	0.0	-13	·
Cc1ccc(NC(=O)Cn2c(=O)ccn(Cc3ccccc3)c2=O)cc1S(=O)(=O)N1CCOCC1	1	5.4	0.6%	3.7	-17	-3
CCOc1ccc(N/C(C)=C/C(=O)c2ccc3c(c2)OCCO3)cc1	-1	0.1	17%	1.1	6	-20
CCOC(=O)C1(C)CCCCCN1C(=O)c1ccc(C(=O)OC)cc1 (configuration not stated)	4	-3.2	0.7%	-0.6	·	-1
CCC(Sc1nc(=O)cc(N)n1CCc1ccccc1)C(=O)Nc1cc(C)on1 (configuration not stated)	-6	-0.5	1.8%	0.0	-3	4
Cn1cccc1/C=N/NC(=O)c1cccnc1	8	-3.2	·	0.6	-3	-2
CCCCCCC(=O)Nc1cc2c(C)cc(=O)oc2cc1C	-4	-1.4	-0.4%	-0.7	3	5
COc1ccc([C@H]2CC(=O)C=C(c3ccc4[nH]ccc4c3)C2)cc1OC	-12	-4.7	5.8%	0.8	30	-13
Cc1cc(C)cc(N2C(=O)CSC23C(=O)N(Cc2c(F)cccc2Cl)c2ccccc23)c1 (configuration not stated)	·	·	-4.2%	3.4	-3	·
O=C(NC1CCN(Cc2ccccc2)C1)c1cc(S(=O)(=O)N2CCOCC2)ccc1Cl (configuration not stated)	·	-5.2	-0.3%	-0.2	-2	5
CCOC(=O)N1CCC2(CC1)CC(=O)c1cc(O)ccc1O2	2	0.2	0.7%	1.0	8	-1
CCCc1cc(=O)n2[nH]c(-c3ccc(C)cc3)cc2n1	-6	1.0	-0.9%	-0.1	7	-9
Cc1cc(S(=O)(=O)Nc2cccnc2)c(Cl)cc1Cl	-4	3.5	1.0%	-0.1	-3	10
COc1cccc(NC(=O)CCNS(=O)(=O)c2ccc3c(c2)CCCC(=O)N3)c1	·	·	-1.1%	-0.4	-6	·
CCN(CC)C(=O)c1sc2c(c1C)c(=O)n(-c1ccccc1)c(=O)n2Cc1c(C)cc(C)cc1C	·	·	2.1%	0.0	-14	·
COc1ccc(-c2ccc(CN3C(C(C)C)C(=O)N(Cc4cn(CCC5OCCO5)nn4)CCS3(=O)=O)cc2)cc1 (configuration not stated)	5	-1.1	2.8%	1.4	11	-9
COc1cccc(NC(=O)C2(C)CCN2C(=O)CCC2CCCC2)c1 (configuration not stated)	5	3.0	2.1%	-0.8	·	6
O=CNC1c2ccccc2CCc2ccccc21	-21	-2.7	-2.3%	1.0	30	4
CCOc1ccc(C2SCC(=O)N2c2c(C)n(C)n(-c3ccccc3)c2=O)cc1 (configuration not stated)	4	-1.9	2.9%	-0.7	16	0
Cc1ccc(S(=O)(=O)N2CCCCC2)cc1C(=O)Nc1ccc(N2CCOCC2)cc1	-2	2.9	0.8%	-0.1	3	-2
COc1cc(OC)c(C2C(C(=O)Nc3ccccc3)=C(C)Nc3ncnn32)cc1OC (configuration not stated)	1	-4.5	1.9%&1.2%	-0.2&-0.1	13&-6	20
O=C(CN(c1ccc(Br)cc1)S(=O)(=O)c1ccc(Cl)c([N+](=O)[O-])c1)NCC1CCCO1 (configuration not stated)	0	-0.1	-1.9%	5.6	8	-7
Oc1ccc(-c2ccccc2)cc1CN1CCCCCC1	5	-1.7	13%	-0.9	37	11
CC(=O)Nc1nc(SCC(=O)NCC2CCCO2)[nH]c(=O)c1NC(=O)c1cccs1 (configuration not stated)	1	-4.3	1.4%	0.7	-2	5
CCn1cc(C(=O)Nc2ccc(OC)c(OC)c2)c2cc(OC)c(OC)cc2c1=O	-7	-0.3	2.7%	0.0	-5	-7
CCOC(=O)C1CN(S(=O)(=O)c2ccc(C)cc2)c2ccccc2O1 (configuration not stated)	4	1.1	2.1%	2.1	3	11
CCOc1ccccc1NC(=O)CCCc1nc2ccccc2c(=O)[nH]1	-4	-1.4	5.9%[38.3 µM]	1.6	-8	-2
CN1CCN(C(=O)c2ccc(-c3nn(C)c(=O)c4ccccc34)cc2)CC1	43	-2.2	2.5%[38.3 µM]	-0.3	2	0
COc1cccc(CNS(=O)(=O)c2ccc3c(c2)CCN3C(=O)C2CCC2)c1	·	·	0.9%	1.9	37	·
CN(C)S(=O)(=O)c1cc(NC(=O)CN2CCN(c3ccccc3O)CC2)ccc1Cl	-17	4.3	-0.1%	-1.2	5	-7
O=C(CN1CCN(c2ccccn2)CC1)Nc1ccc(Oc2ccccc2)cc1	-11	50*	0.3%	1.7	1	-22

Arranged by heavy-atom count (smallest number first): part of the list above.
SMILES	CtBP-E1A inh	D2 agonist	PINK1 modulator	TRPML1 agonist	TRPML1 inh	Six1-Eya2 blk
CCOC(=O)C1CN(S(=O)(=O)c2ccc(C)cc2)c2ccccc2O1 (configuration not stated)	4	1.1	2.1%	2.1	3	11
CCOc1ccccc1NC(=O)CCCc1nc2ccccc2c(=O)[nH]1	-4	-1.4	5.9%[38.3 µM]	1.6	-8	-2
CCn1cc(C(=O)Nc2ccc(OC)c(OC)c2)c2cc(OC)c(OC)cc2c1=O	-7	-0.3	2.7%	0.0	-5	-7
